Source: PubChem (several laboratories)
UUG fidelity – modulators of start codon recognition fidelity in yeast; S. cerevisiae UUG-firefly luciferase reporter, luminescence/redox ratio; 350,000 compounds, 0.13% hits; activity score, % at 18.7 µM; AID 602363;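 active = replicate mean at a twofold rise or more, about +100% in these data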;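 note: firefly luciferase made from a UUG start codon reports start codon fidelity; reporter light over untreated wells divided by growth signal over untreated wells; some hits fall short of that in this replicate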
Rce1 inh – inhibitors of yeast Ras-converting enzyme | AID 2563 | Q03530 | calls only | 290,000 compounds, 0.27% hits | yeast membranes, quenched prenylated peptide cleavage fluorescence;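 active = fall in fluorescence gain of 50% or more versus controls, with final raw signal at or below 3038400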;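 note: plate controls were neutral control wells for no effect and wells lacking membranes for full effect; tested at 10 µM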
Target sequence (Q03530 whole entry, looked up): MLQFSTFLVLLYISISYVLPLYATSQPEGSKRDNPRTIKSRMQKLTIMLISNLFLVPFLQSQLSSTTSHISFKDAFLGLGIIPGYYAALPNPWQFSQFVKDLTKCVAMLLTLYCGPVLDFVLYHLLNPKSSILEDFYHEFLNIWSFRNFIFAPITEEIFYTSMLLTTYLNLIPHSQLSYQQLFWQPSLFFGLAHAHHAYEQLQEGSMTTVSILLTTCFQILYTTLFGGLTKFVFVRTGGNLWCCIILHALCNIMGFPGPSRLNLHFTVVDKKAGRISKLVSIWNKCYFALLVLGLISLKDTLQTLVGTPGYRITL
CSC inhib – cancer stem cell inhibition | inhibition, % at 7.5 µM | cancer stem cell-like cells viability, luminescence | 300,000 compounds, 1.1% hits | AID 2717;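 active = mean at 75% or more and at least half the replicates too; tested in HMLE shEcad cells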;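 note: 0% = median of negative and 100% = median of positive control wells; the first replicate is given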
PABP FP inh – blocks human PABP binding to poly(A) RNA; 290,000 compounds, 1% hits; P11940; inhibition, % at 35 µM; fluorescence polarization;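 active = 50% or more with normal probe brightness, or confirmed in later tests; about a fifth of its hits are not listed in these tables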;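 note: calls also rest on retests at 20 µM and on dose response follow-up; controls were probe without protein and protein plus probe with vehicle; some compounds called inactive have numbers as strong as hits; many hits fall short of the cut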
Target sequence (P11940 whole entry, looked up): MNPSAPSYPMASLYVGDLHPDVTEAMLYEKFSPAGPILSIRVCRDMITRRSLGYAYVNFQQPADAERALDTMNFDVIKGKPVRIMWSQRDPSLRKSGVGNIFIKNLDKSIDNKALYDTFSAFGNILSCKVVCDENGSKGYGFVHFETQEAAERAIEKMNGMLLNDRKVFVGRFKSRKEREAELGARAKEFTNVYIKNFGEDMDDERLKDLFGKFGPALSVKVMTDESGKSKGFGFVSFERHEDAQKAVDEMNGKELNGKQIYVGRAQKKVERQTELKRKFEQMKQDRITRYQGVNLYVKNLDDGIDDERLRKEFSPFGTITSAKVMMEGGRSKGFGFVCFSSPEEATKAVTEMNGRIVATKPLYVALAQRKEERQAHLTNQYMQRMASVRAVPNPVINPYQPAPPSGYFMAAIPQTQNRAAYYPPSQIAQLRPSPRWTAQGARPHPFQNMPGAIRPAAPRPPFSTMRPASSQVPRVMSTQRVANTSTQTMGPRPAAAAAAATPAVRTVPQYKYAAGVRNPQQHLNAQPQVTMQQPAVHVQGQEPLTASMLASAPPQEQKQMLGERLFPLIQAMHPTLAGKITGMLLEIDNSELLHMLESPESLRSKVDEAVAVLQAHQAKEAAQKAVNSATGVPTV
Env fusion inh – inhibitors of HIV Env-mediated cell fusion | 360,000 compounds, 1.1% hits | HeLa-JRFL Env/CEM21 cell fusion, luciferase | inhibition, % at 12.3 µM;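 active = mean replicate inhibition score of at least 50 and every replicate individually at or above 50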;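 note: 0% = plate neutral controls and 100% = maraviroc near 300 nM; one replicate is shown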
MT1-MMP act inh – blocks activation of human MT1-MMP. HT1080 RFP-PRO-GFP cells, GFP/RFP ratio fluorescence, overnight; percent of plate control window, DMSO zero. GFP/RFP ratio change, % at 20 µM. 360,000 compounds, 0.061% hits. AID 651647;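 active = GFP/RFP ratio change of at least 30% with cell ATP level not reduced by more than half and red fluorescence within 50% of control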; note: strong numbers were not always called active
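Assay system: HT1080 RFP-PRO-GFP cells | Dosing: 20 µM single dose, 1% DMSO | Incubation: Cells overnight before dosing, compound overnight, 37 °C, 5% CO2 | Evaluation: GFP/RFP fluorescence ratio | Control set: DMSO-only wells and HT1080 RFP-L50D-GFP cell wells as references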
eIF4H FP inh – inhibitors of RNA binding by human eIF4H; inhibition, % at 35 µM; 290,000 compounds, 0.94% hits; eIF4H fluorescence polarization binding assay; AID 2012;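 active = 50% or more with normal probe brightness, or confirmed in later tests; about a fifth of its hits are not listed in these tables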;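 note: calls also rest on retests at 20 µM and on dose response follow-up; 0% = protein and probe with vehicle and 100% = probe without protein; strong numbers were not always called active; many hits fall short of the cut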
eIF4H FP inh retest – also measured in eIF4H FP inh; calls as there; inhibition, %; compound at 20 µM; confirmation average;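 mean of two retest wells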
PABP FP inh retest – also measured in PABP FP inh; calls as there; inhibition, %; compound at 20 µM; confirmation repeats;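 mean of two retest wells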
MT1-MMP act inh RFP – further read-out of MT1-MMP act inh, marked with its call; RFP signal change, %; measured here: RFP expression control read;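 0 = vehicle wells; hits needed this value within 50% of zero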
* marks the source's active call; other numbers are inactive results; i = inactive; nt = no result given.

SMILES	UUG fidelity	Rce1 inh	CSC inhib	PABP FP inh	Env fusion inh	MT1-MMP act inh	MT1-MMP act inh RFP	eIF4H FP inh	others
CCCC(=O)N(Cc1cc2ccccc2[nH]c1=O)c1ccccc1OC	-18	i	-15	-12	nt	0	-2	-3
COc1ccc2c(c1)c1nc3ccccc3nc1n2CC(=O)OC(C)C	-10	i	-9	121*	-17	-181	3	127	eIF4H FP inh retest=22;PABP FP inh retest=60*
CCCCn1c(N)c(N(CCC(C)C)C(=O)c2[nH]c(C)c(C(=O)OCC)c2C)c(=O)[nH]c1=O	-20	i	-4	nt	-8	2	3	nt
CS(=O)(=O)Nc1ccc(C(=O)N2CCc3ccccc3C2)cc1	nt	i	-7	-2	10	1	0	4
COc1ccccc1C(=O)C1CCCN(C(=O)c2cnn(C(C)C)c2)C1 (configuration not stated)	-15	i	-15	2	-5	-1	-1	-3
CCN(c1ccccc1)S(=O)(=O)c1ccc(Cl)c(NC(=O)CSc2ncn[nH]2)c1	nt	i	-7	-6	-4	-2	-3	0
COc1ccc(CNc2cccc(C)n2)c(O)c1	-14	i	-10	2	-13	0	-2	-5
Cc1ccn2c(=O)nc(SCC(=O)Nc3ccc4c(c3)OCO4)nc2c1	-19	i	25	nt	-6	-1	0	nt
N#Cc1ccccc1S(=O)(=O)N1CCN(C(=O)C2CCCCC2)CC1	-9	nt	6	nt	nt	10	2	nt
CN(C)C(=O)C(OC(=O)c1ccc2ccccc2n1)c1ccccc1 (configuration not stated)	6	i	-1	8	-24	-1	-1	-14
O=C(c1ccco1)N1CCN(Cc2ccc(Cl)cc2)CC1	-3	i	-14	2	nt	-2	-4	2
CCOC(=O)Nc1nn(-c2ccc(C)cc2)c(=O)c(C#N)c1C	-12	i	-4	10	-10	1	0	-8
COc1cccc(OCCCN2CCN(S(=O)(=O)c3ccc(NC(C)=O)cc3)CC2)c1	nt	i	-3	-3	63*	-9	-14	-2
Cc1ccc(NC(=O)CSc2nc(N)c(-c3ccccc3)c(=O)[nH]2)cc1Cl	nt	i	-18	-19	6	1	-1	-6
CSc1ccc(S(=O)(=O)N2CCC(C(=O)NCc3ccccn3)CC2)cc1	-30	nt	-10	37	-7	-1	-1	6
Cc1c(NC(=O)c2ccccc2NC(=O)c2ccccc2)cccc1C(=O)O	-1	i	-9	-4	21	0	-5	-1
O=C(CCc1ccccc1)NC(=S)Nc1ccc2c(c1)C(=O)OC2	nt	i	3	20	-31	2	-1	2
COC1=C(N2CCOCC2)C(=O)c2ccccc2C1=O	-1	i	-8	14	21	0	2	-3
CN1C(=O)Cc2cc(S(=O)(=O)N3CCN(c4cccc(C(F)(F)F)c4)CC3)ccc21	-17	i	14	-13	3	-7	1	-6
O=C(N1CCCCC1)N1CCN(C(=O)N(c2ccccc2)c2ccccc2)CC1	nt	i	-4	3	nt	-3	-3	-10
O=S(=O)(Nc1ccc(N2CCCCC2)cc1)c1ccccc1F	-3	i	5	-5	9	2	-6	-7
O=C(Cc1cccc(C(F)(F)F)c1)NCc1ccc(Cl)cc1	nt	i	2	-7	-3	1	-2	-6
COCOCCn1cc(CN2CCS(=O)(=O)N(Cc3ccc(-c4ccc(Cl)cc4)cc3)C(CC(C)C)C2=O)nn1 (configuration not stated)	-12	nt	nt	nt	19	7	1	nt
CCCCC1C(=O)N(c2ccccc2)N(c2ccc(O)cc2)C1=O (configuration not stated)	-10	nt	33	nt	-9	1	-4	nt
O=S(=O)(Cc1nnnn1-c1ccc(Br)cc1)c1ccc(F)cc1	-21	i	-4	8	-13	2	0	-2
SMILES	UUG fidelity	Rce1 inh	CSC inhib	PABP FP inh	Env fusion inh	MT1-MMP act inh	MT1-MMP act inh RFP	eIF4H FP inh	others
COCC1CCN(C(=O)C2CCC(=O)N(Cc3cccc(C(F)(F)F)c3)C2)CC1 (configuration not stated)	-10	i	nt	-2	-10	-2	-2	-3
CSCCC(NC(=O)c1ccc([N+](=O)[O-])cc1Cl)C(=O)OCC(=O)C12CC3CC(CC(C3)C1)C2 (configuration not stated)	-26	i	-11	-4	-6	4	3	5
COc1ccc(OC)c(CCNC(=O)Cn2cccc2C(=O)c2ccccc2C)c1	nt	i	-14	4	20	0	3	-9
CCO[C@H]1OC(C(=O)NCc2ccccc2)=C[C@@H](c2ccc(C(F)(F)F)cc2)[C@@H]1CCCO	-3	i	14	-5	-5	-2	-8	-8
COc1ccc2oc(C(=O)Nc3nc4ccc(S(C)(=O)=O)cc4s3)c(C)c2c1	-14	i	11	nt	-5	2	6	nt
CCCc1cc(=O)oc2c(C)c3occ(C)c3cc12	-24	i	-23	11	-77	-7	-5	-4
O=S(=O)(Oc1ccc(Cl)cc1)c1cccc2cccnc12	-12	i	3	0	10	-6	-4	-10
c1ccc(-n2nnc(-c3nccs3)n2)cc1	-25	i	-3	nt	-31	-2	3	nt
Cc1ccc(/C=C2/Sc3ccccc3N(CC(=O)NCCCOC(C)C)C2=O)cc1	-20	i	11	-2	nt	-3	-8	2
Cc1n[nH]c(C)c1S(=O)(=O)N1CCCC(C(=O)NCC2COc3ccccc3O2)C1 (configuration not stated)	0	i	1	0	nt	6	-1	-10
Cc1cc(NC(=O)CSc2nnc(COc3ccccc3)o2)no1	-13	i	-8	2	nt	0	4	-1
CCCc1c(C(=O)N/N=C/c2cccs2)nnn1-c1nonc1N	1	i	3	-2	-12	0	1	3
O=C(COc1ccc(Br)cc1)OCc1nnc(-c2ccccc2)o1	-2	i	-1	-13	0	-4	-1	-7
CN1CCN(c2ccc(NC(=O)c3ccccc3Br)cc2)CC1	-12	i	-3	8	nt	-1	-2	-4
COc1cc2c(cc1O)[C@@H]1Cc3cc(OC)c(OC)cc3C(C2)N1C	-2	i	8	-10	25	0	0	-10
CCOC(=O)Cc1cc(=O)n2[nH]c(C)c(-c3ccc(Cl)cc3)c2n1	16	i	55	11	nt	25	1	11
CCOc1ccc(S(=O)(=O)N2CCOCC2)cc1NC(=O)CN1C(=O)NC(C)(c2ccc(C)cc2)C1=O (configuration not stated)	-9	nt	nt	nt	-29	5	-2	nt
C[C@@]12C(=O)Nc3cc(F)c(F)cc3C(=O)N1[C@H]1c3ccccc3OC[C@@H]1[C@@H]2c1ccccc1	-12	nt	nt	nt	-21	-32	-18	nt
O=C(/C=C/c1ccco1)NC(=S)Nc1cccc([N+](=O)[O-])c1	nt	i	-7	0	-105	2	-2	95	eIF4H FP inh retest=-7;PABP FP inh retest=-2
CCc1ccc(Oc2nc([N+](=O)[O-])nn2C)cc1	nt	i	6	-5	-15	-1	-1	6
COc1ccc(C(=O)Nc2c(N)nc(SCC(=O)N3CCCCCC3)[nH]c2=O)cc1OC	-8	i	-11	-2	9	-2	3	4
Cc1noc(C)c1COC(=O)CCc1nc2ccccc2s1	-20	i	-1	8	-118	-3	-4	-2
COC(=O)c1cc(NC(=O)CC2SC(=Nc3ccccc3)N(CCc3c[nH]c4ccccc34)C2=O)cc(C(=O)OC)c1 (configuration not stated)	-8	i	49	-6	-117	-10	-8	-7
Cc1nc2sc(C(c3ccco3)N3CCN(c4cccc(Cl)c4)CC3)c(O)n2n1 (configuration not stated)	-18	i	-4	-7	-37	-10	-4	18
CCCCNC(=O)CSc1nc2ccccc2n1S(=O)(=O)c1ccc(Cl)cc1	nt	i	1	-10	-6	6	3	-6
SMILES	UUG fidelity	Rce1 inh	CSC inhib	PABP FP inh	Env fusion inh	MT1-MMP act inh	MT1-MMP act inh RFP	eIF4H FP inh	others
N/C(=N\N=C/c1ccc(Br)cc1)N/N=C\c1ccc(Br)cc1	-15	i	103*	-4	-16	6	1	-4
Cc1cc2oc(C(=O)N3CCN(Cc4ccccc4)CC3)c(C)c2cc1C	nt	i	21	nt	-8	2	-3	nt
O=C(NCCc1cccc(C(F)(F)F)c1)C1CCC(=O)N(Cc2ccc(Cl)cc2)C1 (configuration not stated)	14	i	6	-1	40	7	1	-11
CCN1C(=O)c2cccc3c(S(=O)(=O)N4CCNCC4)ccc1c23	26	nt	-23	nt	nt	2	1	nt
O=Cc1cn(-c2ccccc2)nc1-c1ccccc1	-14	i	4	-8	-26	-1	0	-2
S=C(NCCc1ccccc1)NCc1cccc(Cl)c1	-21	i	-4	2	nt	4	7	-1
O=C(NCC1(N2CCCCC2)CCCCC1)c1ccc(NS(=O)(=O)c2ccccc2)cc1	6	i	0	nt	-7	4	3	nt
Cc1ccc(-n2c(SCC(=O)N3CCOCC3)nc(O)cc2=O)cc1	-7	i	-10	-2	11	-2	4	-9
CC(=O)Cn1c(CN2CCCCC2)nc2ccccc2c1=O	-8	i	-3	13	10	0	0	5
CCOC(=O)c1oc2ccc(Cl)cc2c1NC(C)=O	-5	i	-8	-4	5	4	4	-5
CCc1nnc(NS(=O)(=O)c2ccc(NCc3cc(Br)ccc3O)cc2)s1	-10	i	-71	16	nt	0	0	-8
CCCn1c2ccccc2c2cnn(CC(=O)NC3CCC(C)CC3)c(=O)c21 (configuration not stated)	-18	i	-18	12	12	0	-4	17
COc1cc(CC(=O)NC(c2ccccc2)c2ccccc2)cc(OC)c1OC	nt	i	4	5	-4	-2	-1	-6
NC(=O)CN1C(=O)C(=O)N(Cc2ccc(F)cc2)C1=O	-15	i	5	0	-5	-3	1	-2
Cc1ccc(SCCC(=O)Nc2nccs2)cc1	nt	i	10	-3	-18	0	1	-3
c1ccc(Oc2nc(-c3ccccn3)nc3ccccc23)cc1	-26	i	3	-7	-10	-4	-8	-4
COc1ccc(CNC(=O)N2CCN(S(=O)(=O)c3ccccc3F)CC2)cc1	-9	i	5	3	-3	-1	1	2
CC1(C)Cc2c(sc(NC(=O)c3ccc(C(=O)c4ccccc4)cc3)c2C(N)=O)C(C)(C)N1	-9	i	-5	-6	22	1	-8	5
CCN(C(=O)COC(=O)c1ccco1)c1c(N)n(Cc2ccccc2)c(=O)[nH]c1=O	-1	i	-11	nt	-11	-1	3	nt
COc1ccc(C(=O)/C=C/C(=O)N(CC(=O)NCCC(C)C)Cc2cccs2)c(O)c1	nt	i	nt	-8	4	-3	-6	-5
CC1CCN(C(=O)C2CCN(S(=O)(=O)c3cccs3)CC2)CC1	-12	i	0	6	-26	-1	1	4
NC(=O)Cn1cnc2nc3n(c2c1=O)CCC3	nt	i	-4	-3	5	1	1	4
CC(NC(=O)c1ccc(F)cc1F)C1CC2CCC1C2 (configuration not stated)	-5	i	16	-5	-28	7	-6	-11
COc1ccc(C(=O)NC[C@H]2O[C@@H](n3cnc4c(N)ncnc43)[C@H](O)[C@@H]2O)cc1OC	-19	nt	nt	nt	24	3	1	nt
Cc1cc(=O)[nH]c(-n2ncc(C#N)c2N)n1	-7	i	6	-2	-4	0	3	7

2 compounds picked at random from the list so far:
SMILES	UUG fidelity	Rce1 inh	CSC inhib	PABP FP inh	Env fusion inh	MT1-MMP act inh	MT1-MMP act inh RFP	eIF4H FP inh	others
CCc1nnc(NS(=O)(=O)c2ccc(NCc3cc(Br)ccc3O)cc2)s1	-10	i	-71	16	nt	0	0	-8
CCOC(=O)c1oc2ccc(Cl)cc2c1NC(C)=O	-5	i	-8	-4	5	4	4	-5

(cont.)
SMILES	UUG fidelity	Rce1 inh	CSC inhib	PABP FP inh	Env fusion inh	MT1-MMP act inh	MT1-MMP act inh RFP	eIF4H FP inh	others
CCOc1cc(/C=C2/SC(=S)N(CC3CCCO3)C2=O)ccc1O (configuration not stated)	nt	i	64	2	0	-15	63	0
C=CCOc1ccc(Br)cc1CNC(C)(C)C	nt	i	-21	7	34	0	1	10
COc1ccccc1N1CCN(/N=C/c2ccccc2C(=O)O)CC1	-5	i	2	25	-7	5	6	13
CCOC(=O)CN1C(=O)S/C(=C/c2ccco2)C1=O	-8	i	-8	-5	-27	1	0	-3
O=C(O)CCC(=O)c1cccc2ccccc12	-14	i	-2	4	-32	4	2	-5
Cc1cccc(NC(=O)CSCC(=O)Nc2cccc3ncccc23)c1	-23	i	5	nt	-28	-4	1	nt
